Bioassay records from PubChem BioAssay.
StopGo reporter – High Throughput Screening for Foot and Mouth Disease Virus Antivirals; human cells with a luciferase reporter of 2A StopGo recoding; control for the full effect not named in the record; Potency, µM (doses to about 57.9 µM), for the others: at the top dose signal change, negative = less light; 1.2% of 410,000 active; AID 1159524, 2015; active = well fitted falling curve with a large enough effect; inconclusive = small, poorly fitted or top-dose-only effect; inactive = no such curve, though single readings can be large or run the other way; tested in HEK293T cells; note: nearly all actives have a fitted effect of over 45% in size; luciferase light after 4 h
RE007 growth inh – qHTS Assay for Inhibitors of the HIV-1 protein Vpr | Potency, µM (doses to about 92.2 µM), without a hit: at the highest dose activity change, negative = less growth | S. pombe RE007 Vpr strain, BacTiter-Glo ATP luminescence, 24 h; control for the full effect not named in the record | 0.21% of 360,000 active | AID 651644, 2012; active = well fitted falling curve with a large enough effect; inconclusive = small, poorly fitted or top-dose-only effect; inactive = no such curve, though single readings can be large or run the other way;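 note: nearly all actives have a fitted effect of over 50% in size; the assay follows cell death caused by Vpr and the record does not say whether a fall means rescue or toxicity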
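Fission yeast RE007 carrying one integrated HIV-1 vpr copy, seeded at OD 0.01 in PMG+AL medium with 23 nL pinned compound. Grown 24 h at 30 degrees; viability read by BacTiter-Glo luminescence after 5 min.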
Active calls of the source: *; ? = inconclusive; [ ] = dose if it differs, or a comment. % is set by controls: 0 for no effect and ±100 for the full control effect; potency is the fitted concentration of half-maximal effect.

Each structure is followed by: StopGo reporter	RE007 growth inh
CC1(C(=O)NS(=O)(=O)c2ccc(F)cc2F)CCN1C(=O)c1cccc(F)c1 (stereo not drawn)
  -16%	7%
CN(C)c1ccc(CNC(=O)C2(C)Cc3c(-c4cccc(C(F)(F)F)c4)ccnc3O2)cc1 (stereo not drawn)
  -24%	-13%[18.4 µM]
O=C(NCCc1ccccc1)c1ccc(NC(=O)C2CC2)cc1
  64%[activator]	7%
CCCc1nc(C)c2c(=O)[nH]c(-c3cc(S(=O)(=O)N4CCN(CC)CC4)ccc3OCC)nn12
  -16%	9%[18.4 µM]
CCOC(=O)[C@]12CCC=C1N(CCC1=CCCCC1)C(=O)[C@H](CC(=O)N1CCN(C(=O)C3CC3)CC1)C2
  -6%	-11%
N#Cc1ccc(C2CC(OCCF)=CC(=O)O2)cc1 (stereo not drawn)
  -5%	5%
CC(C)(C)OC(=O)N1CCc2onc(-c3ccc(-n4cc(C5=CCCCC5)nn4)cc3)c2C1=O
  18%	-8%
CCOc1ccc(-c2cc(C(=O)NCc3ccc(C(F)(F)F)cc3)[nH]n2)c(C)c1
  -6%	18%
CCN(CC(=O)Nc1ccc(NC(C)=O)cc1)C(=O)c1ccc(N2C(=O)c3ccccc3C2=O)cc1
  8%	-7%
O=C1NC[C@H](Cc2ccc(O)cc2)N(CCc2cc(C(F)(F)F)cc(C(F)(F)F)c2)C1=O
  -16%	12%
COc1cccc(-c2sc3ccc(OC)cc3c2-c2cnc(N3CCOCC3)nc2)c1
  19%	-17%
CN(C)c1ccc(-c2csc(C(O)c3ccc(F)cc3)n2)cc1 (stereo not drawn)
  31%[activator]	5%[18.4 µM]
COc1ccc(Cc2c(-c3ccc(Cl)cc3)nc3c(C)cc(Br)cn23)c(C)c1
  -9%	-6%
O=C1CCCN1CCCNc1nc(NCc2cccs2)nc2ccsc12
  ?	?
COc1ccc(-c2csc(Nc3cccc(C)n3)n2)cc1OC
  42%[activator]	-15%
COC(=O)CCC(=O)OC1(C)C(=O)C2=CN(Cc3ccccc3)C(c3ccc(OC)cc3)=CC2=C(Br)C1=O (stereo not drawn)
  -13%	1%
O=C(Nc1ccc(F)c(Cl)c1)c1cc(C2CCCCN2C(=O)c2cccs2)on1 (stereo not drawn)
  ?	8%
COc1ccc(C(c2nnnn2C(C)(C)C)N2CCC3(CC2)C(=O)NCN3c2ccccc2)cc1 (stereo not drawn)
  -7%	-1%
Cc1ccccc1-c1nc(NCC2CC2)nc2ccsc12
  -8%	7%
CC=CC(C)=CC(C)C(=O)CC(O)CC1CC(=O)NC(=O)C1 (stereo not drawn)
  0%	-7%
COc1ccc(-c2csc(Nc3ccc(Oc4ccccc4)cc3)n2)cc1
  ?	-18%
O=C1NC[C@H](Cc2ccc(O)cc2)N(C[C@@H]2CCCN2C[C@H](Cc2ccc(O)cc2)N2C[C@H](Cc3ccccc3)N(CC3CCCCCC3)C(=O)C2=O)C1=O
  10%	-10%
CCCCCCCCN1C(=O)[C@H](CC(=O)N2CCC(c3ccccc3)CC2)C[C@@]2(C(=O)OC)CC(C)(C)CC=C12
  -21%	1%
OC(c1ccccc1)c1nc(-c2cnc3ccccc3c2)cs1 (stereo not drawn)
  13%	-10%[18.4 µM]
O=C(NCCO)c1c(-c2ccc3c(c2)OCO3)noc1-c1ccsc1
  -9%	-1%
Cc1nnc(SCc2ccccc2)nc1-c1ccccc1
  25%	6%
COCC(=O)N(C)C[C@H]1Oc2cc(Br)ccc2S(=O)(=O)N([C@H](C)CO)C[C@H]1C
  -24%	2%
Cc1ccc(C(=O)N2CCC2(C)C(=O)NC(C)C)cc1 (stereo not drawn)
  -9%	10%[18.4 µM]
COc1cccc(C(=O)N2CCC[C@H]2C(=O)N2CCC[C@H]2C(=O)NCc2ccccn2)c1
  -7%	-20%
CO[C@@H]1CN(C)C(=O)c2cc(NC(=O)Nc3cc(F)ccc3F)ccc2OC[C@H](C)NC[C@@H]1C
  -21%	-23%
CCOC(=O)[C@]12CCCC=C1N(Cc1ccccc1)C(=O)[C@H](CC(=O)NCCCCc1ccccc1)C2
  -11%	0%
CN1OC[C@@H]2CN(C(=O)C(C)(C)C)[C@H](c3cccc(N4CCOCC4)c3)C[C@@H]21
  -12%	-2%
OC(c1ccccc1)(c1nc(-c2ccc3ccccc3c2)cs1)C(F)(F)F (stereo not drawn)
  3%	?
O=C1NCCO1
  -10%	12%
CCOc1ccccc1NC(=O)CN(c1ccc(OC)c(OC)c1)S(=O)(=O)c1ccc(C)cc1
  -26%	-16%
CCCC(=O)N(Cc1cc2cc(OC)ccc2[nH]c1=O)c1ccccc1OC
  -25%	14%
CCC(NCc1cccnc1)c1ccc(OC)c(OC)c1 (stereo not drawn)
  5%	5%
COCCNc1nc(NCC2CCCCC2)c2sc(-c3ccccc3)cc2n1
  -20%	-19%
Cc1cccc(C)c1NC(=O)CN1CCN(c2ccc(F)cc2)CC1
  -23%	-25%
COc1ccc(C(N)c2csc(Nc3nncc4ccccc34)n2)cc1 (stereo not drawn)
  12%	4%[18.4 µM]
COc1ccc(C(=O)C=Cc2ccc3c(c2)OCO3)cc1OC
  7%	-1%
O=C(c1ccc(F)cc1)C1CCN(Cc2ccccc2F)CC1
  -9%	-3%
C[C@H](CO)N1C[C@H](C)[C@@H](CN(C)C(=O)Nc2ccccc2F)Oc2cc(Br)ccc2S1(=O)=O
  -9%	-6%
O=C(C[C@@H]1CC[C@@H]2[C@H](COC[C@H](O)CN2CCC(F)(F)F)O1)NCc1ccc2c(c1)OCO2
  -9%	3%
C/C=C/c1ccc2c(c1)O[C@H](CN(C)CC1CCOCC1)[C@@H](C)CN([C@H](C)CO)S2(=O)=O
  15%	2%
CCN1C[C@@H]2[C@@H]3C(=O)N(C)C(=O)[C@@H]3[C@](CC)(C1=O)N2C(=O)c1ccc(C)cc1
  -9%	3%
O=C(CCNS(=O)(=O)c1ccc(Cl)cc1)NCCc1ccccc1
  -3%	-14%
Cc1ccccc1-c1cc2nc(NCCc3ccncc3)n(C)c(=O)c2s1
  21%	?
CCOc1ccc2nc(S(=O)(=O)NC(=O)C3(C)CCN3C(=O)CCc3cccs3)sc2c1 (stereo not drawn)
  -6%	10%
COc1cccc(NC(=O)C2(C)CCCN2C(=O)C(C)C)c1 (stereo not drawn)
  -4%	14%[18.4 µM]

Next records.
Each structure is followed by: StopGo reporter	RE007 growth inh
C[C@@H]1CN([C@H](C)CO)C(=O)CCCn2nncc2CO[C@H]1CN(C)S(=O)(=O)c1ccccc1F
  -3%	14%
OCC[C@@H]1C[C@H](O)[C@@H](O)[C@]2(OCCc3cc(C(F)(F)F)ccc32)O1
  0%	-9%
O=C(/C=C/c1ccccc1Cl)OCC(=O)N1CCc2ccccc21
  1%	-5%
Nc1nc2c(ncn2[C@@H]2O[C@H](CNS(=O)(=O)C3CC3)[C@@H](O)[C@H]2O)c(=O)[nH]1
  -12%	-2%
O=C(NCc1nc2ccccc2[nH]1)C1=C[C@@H](c2ccc(C(F)(F)F)cc2)C[C@@H](OCCCCO)O1
  -27%	3%
CO[C@H]1CN(C)C(=O)c2ccc(NC(=O)C3CCC3)cc2OC[C@H](C)N(Cc2ccc(F)cc2)C[C@@H]1C
  -28%	3%
N#CC(c1ccccc1)C(CC(=O)c1ccccc1)c1ccccc1 (stereo not drawn)
  -29%	-12%
Cc1cc(NC(=O)COC(=O)c2ccc(Cl)cc2)no1
  -15%	4%
Cc1onc(-c2ccccc2)c1NC(=O)OC(C)c1cccnc1 (stereo not drawn)
  -13%	2%
CC1(C(=O)Nc2ccc(Cl)cc2)Cc2c(-c3cccc(C(F)(F)F)c3)ccnc2O1 (stereo not drawn)
  ?	-11%[18.4 µM]
C[C@@H]1CN([C@@H](C)CO)C(=O)CCCn2cc(nn2)CO[C@H]1CN(C)S(=O)(=O)c1cn(C)cn1
  -13%	-8%
O=C(Nc1ccc2ccccc2c1)C(C1CC1)n1c(=O)c(-c2cc3ccccc3[nH]2)nc2ccccc21 (stereo not drawn)
  -19%	-10%
COc1ccc(C(C#N)=Cc2ccc(OC)c(OC)c2)cc1
  0%	-20%
OC(c1ccc(Cl)c(Cl)c1)c1ncc(-c2ccc(Cl)cc2)[nH]1 (stereo not drawn)
  5%	2%
Cc1csc(-c2cc(C(=O)NCc3ccc(F)cc3)n[nH]2)c1
  12%	9%
CCCNC(=O)c1cc(C2CCCCN2S(=O)(=O)c2cn(C)cn2)on1 (stereo not drawn)
  -20%	5%
O=C(NCCO)c1cccc(-c2ccc3nncn3c2)c1
  -17%	15%
Cc1cccc(C)c1NC(=O)Nc1nc(CN(C)C)cs1
  -24%	1%
C[C@@H]1CN([C@@H](C)CO)S(=O)(=O)c2ccc(Br)cc2O[C@@H]1CN(C)C(=O)C1CC1
  53%[activator]	9%
CN1CCn2cnc(C(=O)NCc3ccccc3)c2C1=O
  -14%	1%
COc1ccc(CN2C(=O)C(CC(=O)NC3CCCC3)CC(C(=O)N(C)C)=C2C)cc1 (stereo not drawn)
  -17%	-18%
CCc1ccc(C(O)c2ncc(-c3ccccc3OC)[nH]2)cc1 (stereo not drawn)
  -21%	-25%
CCCNC(=O)Cn1nc(-c2ccccc2OC)ccc1=O
  -24%	-3%
Cc1cn([C@H]2C[C@H](O)[C@@H](CNCc3ccc(F)c(N4CCOCC4)c3)O2)c(=O)[nH]c1=O
  -14%	5%
Cc1ccnc(SC2CC(=O)N(c3ccccc3)C2=O)n1 (stereo not drawn)
  1%	-21%
CN(CC(=O)Nc1cccc(S(=O)(=O)N(C)c2ccccc2)c1)Cc1cccs1
  9%	1%
Cc1ccc(NC(=O)CSc2nnnn2C)cc1S(=O)(=O)N1CCCCC1
  -5%	2%
CC1=C(C(=O)Nc2ccc(C(=O)NCCCN3CCCCC3C)cc2)SCCO1 (stereo not drawn)
  -8%	-15%
CO[C@H]1CN(C)C(=O)c2cc(NC(=O)c3cc(C)on3)ccc2OC[C@@H](C)N(C(=O)C2CC2)C[C@H]1C
  -17%	1%
COc1cccc(CNc2nc3cc(-c4ccc(F)cc4)sc3c(=O)n2C)c1OC
  -20%	2%

Compound profiles (already shown).
Cc1ccnc(SC2CC(=O)N(c3ccccc3)C2=O)n1 (stereo not drawn) in the list: StopGo reporter = 1%; RE007 growth inh = -21%
CO[C@H]1CN(C)C(=O)c2cc(NC(=O)c3cc(C)on3)ccc2OC[C@@H](C)N(C(=O)C2CC2)C[C@H]1C in the list: StopGo reporter = -17%; RE007 growth inh = 1%

More entries follow.
Each structure is followed by: StopGo reporter	RE007 growth inh
O=C(C[C@@H]1C[C@H]2c3cc(NC(=O)NC4CCCCC4)ccc3O[C@H]2[C@H](CO)O1)NC1CCCCC1
  0%	-14%
COc1ccc(NS(=O)(=O)c2cccc(C(=O)N3CCOCC3)c2)cc1
  3%	-3%
CC1(C(=O)NCc2ccccc2Br)CCN1Cc1ccccc1OC(F)F (stereo not drawn)
  -23%	7%
COc1cccc(C2=CC(=O)CCC2)c1
  9%	11%
COc1ccc(NC(=O)C(c2ccc(OC)cc2)n2c(=O)c(-c3ccco3)nc3ccccc32)cc1 (stereo not drawn)
  14%	-6%
Cc1cccc(C)c1NC(=O)C1c2ccccc2OCC(=O)N1Cc1ccco1 (stereo not drawn)
  -28%	17%
Cc1ccc(S(=O)(=O)N2C[C@H]3C(=O)C[C@@H]4C(=O)N(c5ccccc5)C(=O)[C@@H]4[C@@H]3C[C@@H]2c2ccccc2)cc1
  -7%	0%
CCCN(CC(=O)Nc1ccc(F)c(F)c1F)C(=O)c1cc(S(=O)(=O)N(C)C)ccc1N1CCCC1
  -2%	-6%
NC(=O)c1ncn([C@@H]2O[C@H](CNCc3cccc(OC4CCCC4)c3)[C@@H](O)[C@H]2O)n1
  -16%	-4%
CN(Cc1ccccc1)C(=O)c1ccc(NC(=O)Cc2ccc(NC(=O)C3CCCN(C(=O)CCc4ccccc4)C3)cc2)cc1 (stereo not drawn)
  ?	1%
CC1(c2nnnn2Cc2ccccc2)CCC(=O)N1CCCN1CCOCC1 (stereo not drawn)
  -15%	9%
O=C(NC1CC1)c1cccc(NC(=O)C2CCN(S(=O)(=O)c3cccc(C(F)(F)F)c3)CC2)c1
  -21%	-2%
COCCOC(=O)N1CCCCC1c1cc(C(=O)Nc2cccc3c2CCCC3)no1 (stereo not drawn)
  ?	0%
CN1CCCCC1(C)C(=O)NCc1ccc(F)cc1 (stereo not drawn)
  -17%	5%

Filtered by structure, the compounds so far with a cyano group
Each structure is followed by: StopGo reporter	RE007 growth inh
N#Cc1ccc(C2CC(OCCF)=CC(=O)O2)cc1 (stereo not drawn)
  -5%	5%
N#CC(c1ccccc1)C(CC(=O)c1ccccc1)c1ccccc1 (stereo not drawn)
  -29%	-12%
COc1ccc(C(C#N)=Cc2ccc(OC)c(OC)c2)cc1
  0%	-20%

The list is partial (hit frequency here may not be typical).
